# Source: PubChem BioAssay (National Center for Advancing Translational Sciences (NCATS))
# GCN5L2 inh: qHTS Assay for Inhibitors of GCN5L2; Potency, µM (series often up to 58.9 µM), without a hit: top-dose activity change, negative = inhibition, actives largely listed as inhibitors; 390,000 compounds, 0.21% hits; AID 504327, 2011; Histone acetyltransferase KAT2A (Homo sapiens), Q92830; GCN5L2 HAT assay, ThioGlo1 CoA-SH fluorescence; active means well fitted inhibition curve with a large enough effect
# Target sequence (Q92830 whole entry, looked up): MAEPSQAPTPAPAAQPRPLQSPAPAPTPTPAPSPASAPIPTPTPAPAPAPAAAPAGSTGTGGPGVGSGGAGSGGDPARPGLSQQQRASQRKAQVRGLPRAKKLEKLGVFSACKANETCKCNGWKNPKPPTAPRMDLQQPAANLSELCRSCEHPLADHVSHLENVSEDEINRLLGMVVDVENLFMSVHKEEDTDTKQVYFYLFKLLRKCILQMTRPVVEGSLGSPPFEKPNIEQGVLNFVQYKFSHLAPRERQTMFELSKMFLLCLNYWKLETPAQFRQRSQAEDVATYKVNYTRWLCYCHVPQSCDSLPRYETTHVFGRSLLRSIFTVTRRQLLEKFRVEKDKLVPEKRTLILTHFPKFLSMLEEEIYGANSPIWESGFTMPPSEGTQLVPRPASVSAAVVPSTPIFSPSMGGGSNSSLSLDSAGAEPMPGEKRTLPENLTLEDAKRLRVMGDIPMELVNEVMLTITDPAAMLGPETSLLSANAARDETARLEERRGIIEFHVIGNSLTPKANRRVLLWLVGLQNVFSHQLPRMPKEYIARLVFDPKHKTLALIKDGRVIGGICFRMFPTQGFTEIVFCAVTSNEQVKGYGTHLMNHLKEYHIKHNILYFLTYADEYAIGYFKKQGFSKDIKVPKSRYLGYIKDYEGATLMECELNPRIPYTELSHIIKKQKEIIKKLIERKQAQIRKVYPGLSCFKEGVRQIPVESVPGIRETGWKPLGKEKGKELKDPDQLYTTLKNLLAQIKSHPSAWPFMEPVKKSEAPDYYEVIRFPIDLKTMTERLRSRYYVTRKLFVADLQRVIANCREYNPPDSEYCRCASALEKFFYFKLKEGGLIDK
#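 GCN5L2 (20nM final) in 50mM HEPES, 0.1mM EDTA pH 7.5, 0.01% Tween-20 was preincubated 15 min at room temperature with compound, then given ThioGlo1 (50uM), H3(1-25) peptide (75uM) and acetyl-CoA (70uM); CoA-thiol fluorescence (Ex340/Em540) was read at 0 and 20 min.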
# An asterisk follows results filed as active; & = joins results of further samples; [ ] = dose if it differs, or a comment. On the % scale 0 is the no-effect control and ±100 the full control effect; potency means the concentration at half of the fitted maximal effect.
SMILES,GCN5L2 inh
C=CCN(c1ccccc1)S(=O)(=O)c1ccc(Cl)c(C(=O)OCC(=O)N(C)C2CCS(=O)(=O)C2)c1 (configuration not stated),-8%
CCc1ccc(NC(=O)CCCNC(=O)Cn2cnc3sc(C)c(C)c3c2=O)cc1,1%
N#Cc1ccc(OCC(=O)OCC(=O)c2ccc[nH]2)cc1,-19%
O=C(NCCSCc1ccco1)Nc1ccccc1,-22%
COc1ccc(NC(=O)CCc2nc3ccccc3s2)c(OC)c1,-3%
COc1ccc2c(c1)CCc1sc(NC(=O)c3ccc(Br)cc3)nc1-2,-8%
Cc1cccc(C)c1OCCOC(=O)c1n[nH]c2ccccc12,-5%
COc1ccc(NC2CC(=O)N(c3cc([N+](=O)[O-])ccc3C)C2=O)cc1 (configuration not stated),-9%
C/C(N)=C(/C#N)C(=O)CSc1nnc(-c2ccc(OC(F)F)cc2)o1,-8%
Cc1ccccc1C(=O)Nc1ccnn1C1CCN(C(=O)c2cnsn2)CC1,-6%
CCN(CC)CCCNC(=O)c1cn(CCOC)c(=O)c2c1c1ccccc1n2C,-14%
CCOc1ccccc1CN1CCNC(=O)C1CC(=O)N(C)Cc1cnccn1 (configuration not stated),-17%
CC1CC(C)(C)N2C(=O)C(=C(C#N)C#N)c3cccc1c32 (configuration not stated),-4%
CC(=O)c1ccc(S(=O)(=O)NC2CCSc3ccccc32)cc1 (configuration not stated),-4%
CCCCn1c2ccccc2c2nnc(SCC(=O)Nc3ccc(NC(C)=O)cc3)nc21,2%
O=C(COC(=O)c1cc(S(=O)(=O)N2CCOCC2)ccc1Cl)Nc1ccc2c(c1)OCO2,-12%
Cc1ccnc(NCc2cccc3ccccc23)c1,-12%
COc1ccc(OC)c2c1CC(C)(C)NC2=O,0%
CN(C(=O)COC(=O)c1cncc(Br)c1)C1CCS(=O)(=O)C1 (configuration not stated),0%
Cn1cnc(S(=O)(=O)NCc2ccc(Br)cc2)c1,-5%
COc1ccc2c(c1)c1c(c(=O)n(Cc3ccccc3)c(=O)n1Cc1ccc(C)cc1)n2C,-1%
O=C(CNC(=O)c1ccccc1F)OCc1csc(-c2ccccc2)n1,-5%
COc1ccc(CNC(=O)C2CC(c3cccc(OC)c3)=NO2)cc1 (configuration not stated),-9%
Cc1cccc(NC(=S)N(CCN(C)C)C(C)c2cccnc2)c1 (configuration not stated),-2%
O=C(COc1cccc(-n2cnnn2)c1)N1CCOCC1,0%
# (cont.)
SMILES,GCN5L2 inh
O=C(NC[C@H]1CCCO1)c1cccc2c1C(=O)c1ccc(-c3ccc(F)cc3OCc3ccccc3)cc1S2(=O)=O,-13%
CCCOc1ccc(CNC(=O)CCCn2nc(C)c3sc4ccccc4c3c2=O)cc1,-9%
CCc1ccc(CN(C)C(=O)c2cc(COc3cccc(C(F)(F)F)c3)on2)nc1,-12%
CS(=O)Cc1cc(Sc2ccccc2)nc(-c2cccnc2)n1 (configuration not stated),-7%
Cc1cc(C)c2[nH]c(=O)c(CN(Cc3ccc4c(c3)OCO4)Cc3nnnn3C3CCCC3)cc2c1,-11%
Cc1ccccc1Cn1c(CN2CCC(C(=O)NCCc3ccccc3)CC2)cc2ccccc21,-11%
O=C(OCC#CCSc1nc2ccccc2o1)c1ccco1,-2%
Cc1ccc2[nH]c(=O)cc(C(=O)OCC(=O)c3ccc(F)cc3)c2c1,-4%
O=c1cc(-c2ccccc2)[nH]c2[nH]n(-c3ccccc3)c(=O)c12,-4%
CC12CCC(c3c(CO)nn(-c4ccccc4)c31)C2(C)C (configuration not stated),0%
CCOc1ccc(S(=O)(=O)N=C(c2ccccc2)N2CCOCC2)cc1,-3%
CCNC(=O)NC(=O)C(C)Sc1nnc(COc2ccccc2Cl)o1 (configuration not stated),-4%
O=C(CN1CCCC1)Nc1nnc(-c2cccs2)s1,-4%
CCOC(=O)C(Sc1n[nH]c(N)n1)c1ccccc1 (configuration not stated),-2%
Cc1ccc(S(=O)(=O)N2[C@@H](c3ccc(Br)cc3)C(C(=O)O)=CC[C@H]2c2ccc3c(c2)OCO3)cc1,0%
CCc1nc(SCc2cccnc2)[nH]c(=O)c1C,1%
CCCC(C(=O)Nc1ccc(S(=O)(=O)Nc2nccs2)cc1)c1ccccc1 (configuration not stated),-3%
CCOC(=O)c1sc2ncn(C(C)C(=O)OC)c(=O)c2c1C (configuration not stated),8%
COc1ccc(NC(=O)CSc2nnc(NC(=O)CN3CCOCC3)s2)cc1,-5%
C/C(=N/NC(=O)C1CCCCC1)c1ccc([N+](=O)[O-])cc1,-1%
O=C(Nc1cccc2c1C(=O)NC2=O)c1ccc(S(=O)(=O)N2CCCC2)cc1,-8%
O=C(NC1CCCCC1)c1cc(-c2ccc(F)cc2)on1,-14%
S=C(Nc1ccc(Br)cc1)NC1CCCCC1,1%
CCc1ccc(NC(=O)/C(C#N)=C/c2cc3ccc(C)cc3nc2N2CCOCC2)cc1,-4%
CCCCN(C(=O)C1CC(=O)N(c2ccc(C)cc2)C1)c1c(N)n(CCC)c(=O)[nH]c1=O (configuration not stated),-11%
# The list goes on.
SMILES,GCN5L2 inh
COc1ccc(C2N(c3ccc(F)cc3)C(=O)C3CCCN32)cc1 (configuration not stated),-1%
CCCN1CCN(CCCNC(=O)CN2C(=O)COc3ccccc32)CC1,-2%
CCC(C)Cn1c(C(C)O)nc2ccccc21 (configuration not stated),-4%
CN1Cc2c(N)cccc2C(c2ccccc2)C1 (configuration not stated),-7%&-3%&0%
O=C(c1cc(-c2ccc(Cl)cc2Cl)on1)N1CCN(C(=O)c2ccco2)CC1,-4%
CCCCC1=C(C(=O)OCC)C(C(=O)OCC)Oc2ccccc21 (configuration not stated),-8%
Cc1ccc2nc(-c3ccc(SCC(=O)O)nc3)[nH]c2c1,-13%
CC(C)(C)NC(=O)NC(=O)COC(=O)c1cc[n+]([O-])cc1,1%
O=c1oc(-c2ccccc2NS(=O)(=O)c2ccccc2)nc2ccccc12,-17%
CCOC(=O)N1CCN(C(=O)C(c2ccccc2)c2ccccc2)CC1,1%
CC1=NN(C(=O)CCc2ccc3c(c2)OCO3)C(O)(C(F)(F)F)C1 (configuration not stated),2%
COC(=O)C(C)(C)ONC(=O)Nc1ccccc1,-2%
Cc1ccc(Cl)cc1NS(=O)(=O)c1ccc2oc(=O)c3ncn(C)c3c2c1,4%
O=C(CN1CCN(C(=O)c2cccc(S(=O)(=O)N3CCCC3)c2)CC1)Nc1ccc(F)cc1,2%
CC(=O)c1nc2ccccc2n1S(=O)(=O)c1ccc(C)cc1,-6%
COc1ccc(C)cc1Nc1cc(C)nc2nc(C)nn12,-4%
Cc1oc(-c2cccc(Br)c2)[n+]([O-])c1C,-1%
CC(=O)N1CCOc2ccc(S(=O)(=O)NCCc3cccc(C)c3)cc21,1%
O=C(NNC(=O)C1CC1)c1cccc([N+](=O)[O-])c1,-2%
CCOC(=O)CSc1nc2ccc(NC(=O)c3ccc(C)cc3)cc2s1,-6%
C#Cc1ccc([C@H]2C=C(C(=O)N3CCOCC3)O[C@@H](OCC)[C@@H]2CCCO)cc1,0%
CCOc1ccc(C(=O)Nc2nnc(NC(=S)Nc3ccccc3)s2)cc1,20%
N#Cc1cc2ccccc2nc1SCc1cccnc1,-1%
CCOC(=O)Cc1csc(NC(=O)c2c(-c3ccccc3)noc2C)n1,-11%
O=C(Nc1nnc(SCc2ccccc2)s1)c1ccco1,-6%

# By substructure, the entries above containing a COOH group.
SMILES,GCN5L2 inh
Cc1ccc(S(=O)(=O)N2[C@@H](c3ccc(Br)cc3)C(C(=O)O)=CC[C@H]2c2ccc3c(c2)OCO3)cc1,0%
Cc1ccc2nc(-c3ccc(SCC(=O)O)nc3)[nH]c2c1,-13%

# Random excerpt: 2 compounds from above
SMILES,GCN5L2 inh
CCCCC1=C(C(=O)OCC)C(C(=O)OCC)Oc2ccccc21 (configuration not stated),-8%
O=C(CN1CCN(C(=O)c2cccc(S(=O)(=O)N3CCCC3)c2)CC1)Nc1ccc(F)cc1,2%

# The listing continues:
SMILES,GCN5L2 inh
COc1ccccc1CN1CC(C(=O)NCc2nc3ccccc3n2C)CCC1=O (configuration not stated),-28%
CN(C(=O)COc1cc(=O)n(C)c2ccccc12)c1ccc(Cl)cc1,-10%
Cc1cc(C(=O)CSc2nc3ccccc3n2CCC#N)c(C)n1Cc1cccs1,-13%
FC(F)(F)c1cccc(/C=N/NC(=S)NC2CCCCC2)c1,-4%
COc1ccc(Br)cc1CNC(=O)c1cnc2sc(N3CCCC3)nn2c1=O,-4%
CC1CC(=O)N(CC(=O)Nc2ccc(Br)cc2)c2ccccc2S1(=O)=O (configuration not stated),-4%
CN(CC(CC(=O)Nc1nncs1)c1ccccc1)S(=O)(=O)c1ccccc1 (configuration not stated),-6%
CCOC(=O)c1ccc(NCc2ccc(N(C)C)cc2)cc1,-3%
COc1ccccc1N1CCN(C(=O)CCc2nnc3ccc(N4CCC(C)CC4)nn23)CC1,-2%
O=C(CNC1CCCCC1)Nc1cc(S(=O)(=O)N2CCOCC2)ccc1Cl,2%
Nc1nc2ccc(N3CCOCC3)cc2s1,-9%
O=C(CCc1ccccc1)NNC(=S)Nc1ccc(F)cc1,0%
Cc1cc(OCC(=O)NC2CC2)c2c(C)cc(=O)oc2c1,-10%
CCNC(=O)C1=C(O)c2sccc2N(C)S1(=O)=O,-3%
Cc1cc(NC(=S)Nc2cccc3ccccc23)n[nH]1,-6%
CSc1nnc2n(-c3ccc(C)cc3)c(=O)c3c4c(sc3n12)COC(C(C)C)C4 (configuration not stated),-5%
Cc1cc(NC(=O)CN2C(=O)NC(Cc3ccccc3)C2=O)no1 (configuration not stated),0%
CCOc1ccc(NC(=O)CN(C)C(=O)c2cc3c(s2)CCC(C)C3)cc1OCC (configuration not stated),0%
COc1ccc(S(=O)(=O)NN(C)c2ncc(C(F)(F)F)cc2Cl)cc1,1%
O=P(CCN1CCCCC1)(c1ccccc1)c1ccccc1,0%
CCn1c(Cc2ccccc2)nnc1SCC(=O)N1CCCCC1,-4%
Oc1ccccc1OCc1nc2ccccc2s1,1%
Cc1ccc(-n2nc3c(=O)n(CCCC(=O)NCCc4ccccc4)nc(C)c3c2C)cc1,-6%&3%
CCOC(=O)c1c(C)[nH]c(C)c1S(=O)(=O)NCc1ccccc1C,-14%
Cc1ccsc1C(C(=O)NC(C)(C)C)N(Cc1ccco1)C(=O)c1csnn1 (configuration not stated),-2%
# (cont.)
SMILES,GCN5L2 inh
COc1ccc(Nc2nc3ccc(Cl)cc3nc2-n2nc(C)cc2C)cc1,-3%
Cc1ccc(C(=O)N/N=C\C2CC=CCC2)cc1[N+](=O)[O-] (configuration not stated),-30%
CN(C)CCCC1(O)c2ccccc2C=Cc2ccccc21,0%
O=S(=O)(c1cc(-c2nnc(-c3ccc(Br)cc3)o2)ccc1Br)N1CCCCCC1,1%
c1cncc(CNC2CCCc3ccccc32)c1 (configuration not stated),-1%
O=C(CSc1ccc([N+](=O)[O-])cn1)Nc1ccccc1N1CCOCC1,-19%
CCOC(=O)C1(Cc2ccccc2Cl)CCN(Cc2csc(C(C)=O)c2)CC1,-4%
Cc1ccc(Cl)cc1NC(=O)CCCn1c(=O)c2cccn2c2ccccc21,-4%
O=C(Nc1nc(-c2ccc(-c3ccccc3)cc2)cs1)C1CCCO1 (configuration not stated),-5%[0.501 µM]
O=C(COC(=O)c1cccnc1Cl)NCCCc1ccccc1,-5%
N#CCCS(=O)(=O)c1ccc(N)cc1,35%[activator]
Cc1ccc(C(=O)NCC(c2ccc3c(c2)OCO3)N2CCOCC2)cc1 (configuration not stated),14%
c1ccc(Cn2nnc3c(N4CCOCC4)ncnc32)cc1,4%
Cc1nn(C(=O)CN2C(=O)c3ccccc3C2=O)c(C)c1Br,-12%
Cc1c(NC(=O)COC(=O)/C=C/c2cccc(Cl)c2)c(=O)n(-c2ccccc2)n1C,-1%
CN(C)c1ccncc1C(=O)Nc1ccc(F)cc1F,-3%
CC(=O)c1ccc(NC(=O)CCNS(=O)(=O)c2cc(Br)cnc2N)cc1,-19%
CCN(CC)CCN(C(=O)c1ccc2ccccc2c1)c1nc2ccc(OC)cc2s1,-4%
COc1cc(/C=C/c2nnc3c4ccccc4ncn23)cc(OC)c1OC,-15%
CCOc1ccc(CCNC(=O)CCn2c(=O)c3cccn3c3ccc(F)cc32)cc1,-15%

# Arranged by SMILES length (low to high): part of the list above.
SMILES,GCN5L2 inh
O=C(Nc1nc(-c2ccc(-c3ccccc3)cc2)cs1)C1CCCO1 (configuration not stated),-5%[0.501 µM]
COc1ccc(Nc2nc3ccc(Cl)cc3nc2-n2nc(C)cc2C)cc1,-3%
CC(=O)c1ccc(NC(=O)CCNS(=O)(=O)c2cc(Br)cnc2N)cc1,-19%
CCOc1ccc(CCNC(=O)CCn2c(=O)c3cccn3c3ccc(F)cc32)cc1,-15%
Cc1c(NC(=O)COC(=O)/C=C/c2cccc(Cl)c2)c(=O)n(-c2ccccc2)n1C,-1%

# Copied from the list.
# Entry of `O=C(Nc1nc(-c2ccc(-c3ccccc3)cc2)cs1)C1CCCO1` (configuration not stated) in GCN5L2 inh: -5%[0.501 µM]
# Entry of `c1ccc(Cn2nnc3c(N4CCOCC4)ncnc32)cc1` in GCN5L2 inh: 4%
# Entry of `COc1cc(/C=C/c2nnc3c4ccccc4ncn23)cc(OC)c1OC` in GCN5L2 inh: -15%
# Entry of `Cc1nn(C(=O)CN2C(=O)c3ccccc3C2=O)c(C)c1Br` in GCN5L2 inh: -12%
# Entry of `COc1ccc(Nc2nc3ccc(Cl)cc3nc2-n2nc(C)cc2C)cc1` in GCN5L2 inh: -3%
# Entry of `CCOc1ccc(CCNC(=O)CCn2c(=O)c3cccn3c3ccc(F)cc32)cc1` in GCN5L2 inh: -15%
# Entry of `CCOC(=O)C1(Cc2ccccc2Cl)CCN(Cc2csc(C(C)=O)c2)CC1` in GCN5L2 inh: -4%

# Some of the compounds tested, and most or all hits are left out here.
